H5N1 CPE – MDCK cell protection from H5N1 avian flu; cytopathic effect, luminescence, 72 h; active compounds read high; no value below 0 was filed and about half of the inactive calls have no number; reference of the scale not given here; inhibition, % at 50 µM; actives 0.07% (n = 96,000); AID 740; in the data active = inhibition above about 25%
Calls only.

Screening CNc1c2c(nn1C)CCCC2 returned H5N1 CPE inactive.

Not all compounds are listed; count on the stated rates, not on these rows.
